# High-throughput results from PubChem.
# B2AR ag – activates human beta-2 adrenergic receptor causing internalization; P07550; Am2.2-beta2AR cells, FAP receptor internalization, flow cytometry; reference of the scale not given here; response, % (test concentration not listed); actives 0.43% (n = 340,000); AID 504454;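 active means response above a set limit, near 3 SD of response in nonfluorescent compounds, cut at about 42% in these data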;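 further: stock transfer was 100 nL into about 11 µL; a reference agonist was the positive control; negative values mostly stem from fluorescent compounds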
# Beta apoptosis – blocks beta cell apoptosis. AID 435005. actives 0.8% (n = 300,000). INS-1E cytokine-induced death, ATP luminescence, 48 h; percent of positive-control rescue, neutral wells zero. protection from apoptosis, % (no concentration beside the values);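 active means all replicates at 75% or more, or half of them and the mean; inconclusive means half reach 75% but not the mean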;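 further: 0% = cytokine-treated negative control wells and 100% = positive control rescue; higher means more ATP so stronger rescue from cytokine killing; wells of about 40 µL received 100 nL stock; the first replicate is given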
# RanGTP-Impb inh – disruptors of Ran-importin-beta complex formation – biochemical, FRET, CFP-Ran, YFP-importin-beta, homogeneous, primary screen; cell-free CFP-Ran/YFP-importin-beta FRET ratio; inhibition, % (concentration not given with the values); actives 1.1% (n = 300,000);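 active means most replicates above 15%; inconclusive means exactly half above 15%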;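 further: 0% = DMSO wells and 100% = Ran loaded with GDP instead of GTP; wells of about 40 µL received 100 nL stock; the first replicate is given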
# Calb FLC – affects C. albicans growth with fluconazole | C. albicans CaCi-2 (fluconazole-resistant clinical isolate) + fluconazole, Alamar Blue growth, 48 h | growth inhibition, % (concentration not given with the values) | actives 0.57% (n = 300,000) | AID 1979;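 active means most replicates above 75%; inconclusive means exactly half above 75%; inactive means most below 75%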;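 further: all wells also contain fluconazole at 8 µg/ml as a sub-toxic cotreatment; 0% = median of DMSO wells and 100% = median of geldanamycin control wells; wells of about 8 µL received 7.5 nL stock; the first replicate is given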
# UCH37 inh – blocks the human deubiquitinase UCH37; purified proteasome/UCH37, Ub-AMC cleavage fluorescence; inhibition, % (no concentration beside the values); actives 0.33% (n = 330,000);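 active means mean of two replicates above 20%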;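 further: 0% = compound-free wells with enzyme and 100% = wells lacking proteasome; stock transfer was 100 nL into about 20 µL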
#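 Material: Human UCH37 enzyme supplied as purified proteasome complex | Schedule: 30 min compound-proteasome preincubation then 25 min substrate reaction, room temperature | Detection: AMC fluorescence from Ub-AMC cleavage, excitation 355 nm, emission 460 nm | Benchmarks: Wells without proteasome as full block, compound-free enzyme plus substrate as uninhibited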
# T cruzi repl – T. cruzi replication inhibition. T. cruzi beta-gal in NIH3T3, luminescence, 90 h. actives 1.4% (n = 300,000). inhibition, % (no concentration beside the values);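 active means mean inhibition across valid replicates above about 55%, limit read from the data; inconclusive means mean below that limit but half or more replicates reach it; inactive means mean below it, under half of replicates reach it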;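 further: signal also drops with host cell toxicity which is not excluded here; 0% = plate median of DMSO wells and 100% = zero luminescence signal; higher percent means less beta-gal luminescence so fewer parasites; stock transfer was 50 nL into about 50 µL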
# LANA-H2B inh – blocks KSHV LANA binding to histone H2A/H2B. Q9QR71. cell-free LANA-H2A/H2B peptide, fluorescence polarization. inhibition, % (test concentration not listed). actives 0.6% (n = 320,000). AID 2629; in the data active means inhibition mostly above about 10%, no sharp cut-off; inactive means mostly below about 6.7%;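 further: stock transfer was 7.5 nL into about 10 µL; 0% = median of vehicle wells and 100% = median of positive control wells; one replicate is shown; the record names a cut of 25% in any replicate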
# Target sequence (Q9QR71 whole entry, looked up): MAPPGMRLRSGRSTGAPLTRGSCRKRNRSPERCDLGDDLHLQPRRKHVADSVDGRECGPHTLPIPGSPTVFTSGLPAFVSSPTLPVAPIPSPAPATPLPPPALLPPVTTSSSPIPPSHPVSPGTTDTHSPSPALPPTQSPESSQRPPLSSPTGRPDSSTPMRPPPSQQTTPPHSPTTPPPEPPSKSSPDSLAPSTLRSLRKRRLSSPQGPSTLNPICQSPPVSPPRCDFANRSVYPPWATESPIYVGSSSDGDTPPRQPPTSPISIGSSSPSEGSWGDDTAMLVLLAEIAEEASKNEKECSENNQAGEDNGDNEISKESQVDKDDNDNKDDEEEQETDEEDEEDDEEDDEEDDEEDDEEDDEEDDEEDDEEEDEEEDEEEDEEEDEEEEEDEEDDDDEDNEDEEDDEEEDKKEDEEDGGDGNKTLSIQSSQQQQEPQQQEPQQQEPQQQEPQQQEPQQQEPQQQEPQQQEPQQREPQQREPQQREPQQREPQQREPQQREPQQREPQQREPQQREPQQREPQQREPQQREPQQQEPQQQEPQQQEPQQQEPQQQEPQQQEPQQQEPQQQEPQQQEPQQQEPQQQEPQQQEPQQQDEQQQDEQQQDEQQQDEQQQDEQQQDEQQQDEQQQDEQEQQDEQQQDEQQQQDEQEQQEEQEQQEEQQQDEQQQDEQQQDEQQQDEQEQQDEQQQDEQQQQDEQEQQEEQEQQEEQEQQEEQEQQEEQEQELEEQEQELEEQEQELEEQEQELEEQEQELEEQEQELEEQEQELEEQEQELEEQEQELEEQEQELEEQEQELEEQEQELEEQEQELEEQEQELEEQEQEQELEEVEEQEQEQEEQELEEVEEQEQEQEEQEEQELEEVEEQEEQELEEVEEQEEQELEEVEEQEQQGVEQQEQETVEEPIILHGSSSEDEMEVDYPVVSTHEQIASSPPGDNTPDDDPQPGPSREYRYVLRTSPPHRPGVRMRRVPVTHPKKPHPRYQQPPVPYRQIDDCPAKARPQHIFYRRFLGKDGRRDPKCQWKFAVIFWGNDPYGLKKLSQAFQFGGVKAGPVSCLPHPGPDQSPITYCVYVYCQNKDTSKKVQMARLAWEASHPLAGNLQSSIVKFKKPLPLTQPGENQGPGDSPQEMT
# A1 inh – inhibitors of the anti-apoptotic protein A1, read as caspase activation; MEF A1-2A-BIM cells, Caspase-Glo 3/7 luminescence, 3 h; percent of clofoctol response, vehicle zero; caspase activation, % (no concentration beside the values); actives 0.066% (n = 330,000); AID 2462;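 active means over half of replicate activation scores above 10%, or exactly half above 10 with the replicate mean above 10; inconclusive means replicate mean below 10 yet half the replicates above 10; inactive means over half of replicates below 10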;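 further: wells of about 30 µL received 50 nL stock; many hits fall short of the cut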
# * marks the source's active call; other numbers are inactive results; ? = inconclusive; . = no result given. Rows are unselected; overall some 4.3% were active at least once.
SMILES,B2AR ag,Beta apoptosis,RanGTP-Impb inh,Calb FLC,UCH37 inh,T cruzi repl,LANA-H2B inh,A1 inh
CCOc1ccc(N/C(C)=C/C(=O)c2ccc(C)o2)cc1,-1,1,-4.5,-1,9.3,60*,3.7,-0.1
Cc1ccc(NC(=O)CN(C)C(=O)COC(=O)[C@@H](NC(=O)c2ccccc2F)C(C)C)cc1,1,-1,.,.,5.8,.,1.7,-0.1
O=C(O)c1ccc(OCCCCCCOC2CCCCO2)cc1 (configuration not stated),0,-4,-2.3,0,5.9,-11,-1.1,?
CC1CCCN(C(=O)CCc2nnc(-c3ccc4c(c3)OCO4)o2)C1 (configuration not stated),-8,16,0.1,2,0.2,1,3.4,0.7
CCC(=O)Nc1cccc(NC(=S)NC(=O)c2ccccc2)c1,-8,-3,-1.9,-8,0.9,-3,4.8,-0.8
N#Cc1cc2c([nH]c1=S)CCCC2,9,-10,3.0,-1,6.2,3,3.2,-0.1
C/C(=N\Nc1cccc(C(=O)O)c1)c1ccc2c(c1)Nc1ccccc1S2,-6,6,3.9,14,.,4,-0.7,0.1
CC(NC(=O)/C(=C/c1ccc(OC(F)F)cc1)c1ccccc1)c1ccccc1 (configuration not stated),10,20,5.7,2,3.9,19,-4.0,0.7
O=C(c1ccccn1)N1CCCC(N2CCN(c3cccc(C(F)(F)F)c3)CC2)C1 (configuration not stated),4,-1,1.6,-10,2.6,4,-3.0,-0.1
N#C/C(=C\c1ccccc1O)C(=O)Nc1cccnc1,-4,-3,-1.3,-1,3.9,-7,0.9,-5.6
CC(C)N1C(=O)S/C(=C/c2ccc3c(c2)n(C)c(=O)n3C)C1=O,0,-3,-0.9,47,-66,-13,-1.5,0.6
Cc1c(NC(=O)CSc2nnnn2C)c(=O)n(-c2ccccc2)n1C,-4,-2,2.7,-2,5.2,-4,-0.5,0.1
Cc1cc(C)c(C#N)c(Nc2ccccc2Cl)n1,0,-1,-2.0,.,-5.8,3,-1.8,1.2
CC(C)c1ccc(NC(=O)Cn2nnc(C(=O)NCc3ccco3)c2N)cc1,0,0,4.3,-2,6.0,-4,5.7,-0.1
CS(=O)(=O)c1ccc(Cl)c(NC(=O)C2CC(=O)N(c3ccc4c(c3)OCCO4)C2)c1 (configuration not stated),-2,0,0.7,31,1.9,-7,-5.0,-0.1
O=S(=O)(CCN1CCOCC1)c1ccccc1,-6,0,-2.7,-2,-0.3,-9,0.6,1.7
COc1cc(OC)c(NC(=O)CN(C)S(=O)(=O)c2ccc(-c3ccc(=O)[nH]n3)s2)cc1Cl,8,-4,1.9,-2,2.4,3,0.6,0.1
O=C(c1ccc(N2CCOCC2)cc1)N1CCCC(Nc2ccccc2)C1 (configuration not stated),-1,-1,-0.9,2,0.0,-4,0.9,0.4
COCCNc1nnc(SCC(=O)Nc2cc(C)on2)s1,7,4,.,.,0.4,.,0.9,0.0
O=C1N[C@@H](Cc2ccccc2)C(=O)N2[C@@H]3N(S(=O)(=O)c4ccc(F)cc4)c4ccccc4[C@]3(Br)C[C@@H]12,-2,.,5.5,5,3.1,6,-7.2,0.5
OC(CNCC1CCCCC1)COc1ccccc1 (configuration not stated),-17,-3,3.5,-5,4.9,10,-1.1,0.0
Cc1cc(S(=O)(=O)N2CCCC2)ccc1OCC(=O)Nc1ccccc1,7,3,-2.3,2,0.3,8,6.1,-0.6
CCOC(=O)N1CCN(C(=O)c2cc(S(=O)(=O)N3CCc4ccccc43)ccc2OC)CC1,-11,-2,-1.0,2,3.8,17,-9.6,-0.8
CC1CCc2sc(C(=O)NN=C3CCC(c4ccccc4)CC3)cc2C1 (configuration not stated),-4,-3,?,-30,-0.4,-19,6.9,-0.6
COc1ccc(N2CCN(Cc3cc(=O)oc4cc5c(cc34)CCCC5)CC2)cc1,0,.,5.0,35,6.0,6,2.2,-0.5
COc1cccc(CNC(=O)COC(=O)c2c(NC(C)=O)sc(C)c2C)c1,5,2,.,.,-7.3,.,0.6,2.4
C=CCNc1nc(NCc2ccco2)nc(OCC)n1,-2,5,-0.6,-8,4.8,-26,-5.9,-0.7
Cc1cc(-c2nnc3n2N=C(c2ccccc2Br)CS3)n[nH]1,-4,-1,-4.2,-7,0.2,-1,-3.7,-0.1
CCN(CC(=O)Nc1ccccc1-c1ccccc1)Cc1nc2ccccc2c(=O)[nH]1,4,-3,-0.4,-4,0.7,-7,.,0.4
Nc1ccn(CC(=O)NCCc2ccccn2)c(=O)n1,3,-3,.,.,0.7,.,-1.4,0.3
O=C(O)CN1C(=O)/C(=C\c2cccc(OCc3ccc(Cl)cc3Cl)c2)SC1=S,4,-2,-3.3,36,.,10,-1.8,-0.3
CC(=O)Nc1nc2c(C)c(Cl)ccc2s1,1,-2,0.4,-2,0.8,-10,-0.8,-0.5
O=C(OCn1nnc2ccccc2c1=O)c1cn(-c2ccccc2)nc1-c1cccnc1,-20,4,-3.1,12,3.7,.,2.6,0.0
Cc1cccc2nc(Cn3c(=O)n(CCCC(=O)NCc4ccco4)c(=O)c4ccccc43)cc(=O)n12,-20,1,-10,-8,0.1,10,1.7,0.8
COc1cccc(CNC(=O)c2cc3oc4ccccc4c3n2C)c1OC,-3,-5,6.4,5,-5.6,-2,-2.0,-0.2
CCOC(=O)c1c(NC(=O)c2cccs2)sc2c1CC(C)(C)OC2,4,1,5.0,27,-39,26,0.6,0.0
CC(C)Oc1ccc(Oc2ccc(C(F)(F)F)cn2)cc1,6,-2,4.7,0,1.4,15,0.4,0.2
CCOc1ccc(NC(=O)C2(c3ccc(OC)c(OC)c3)CCCC2)cc1,7,0,0.0,-4,2.2,-7,-0.1,-1.0
O=C(Cc1ccc(-n2c(=O)c3ccccc3n(Cc3ccccc3Cl)c2=O)cc1)NCC1CCCO1 (configuration not stated),-2,-4,-3.7,-4,-2.5,-1,5.9,0.0
CCn1c(SCC(=O)c2ccc3ccccc3c2)nnc1-c1ccco1,14,-5,?,9,1.2,-8,1.9,0.0
COc1ccc(NC(=O)c2oc3ccccc3c2CSC)cn1,23,.,1.1,-3,1.9,8,.,.
CC1CC(C)CN(C(=O)Cn2c(=O)oc3cc(S(=O)(=O)N4CCCC4)ccc32)C1 (configuration not stated),3,1,3.2,-9,1.1,-4,-1.2,-0.2
FC(F)(F)c1ccc(-n2cn[nH]c2=S)cc1,-2,-2,-1.8,-8,4.6,-4,-0.4,-0.1
O=C(O)CCSc1ccc([N+](=O)[O-])cc1[N+](=O)[O-],-3,-2,-1.4,-3,.,-7,-18,0.4
O=C(c1ccc2c(Cl)c3c(nc2c1)CCCC3)N1CCC(N2CCCCC2)CC1,6,-2,-2.5,-4,7.7,41,-1.5,0.0
COc1ccccc1N1CCN(C(=O)c2cc(C(=O)N3CCN(c4ccccc4OC)CC3)cc([N+](=O)[O-])c2)CC1,-4,-6,4.9,-5,2.9,-11,-5.1,0.2
CCOC(=O)C1CCCN(C(=O)Cc2ccc(OC)c(OC)c2)C1 (configuration not stated),10,-4,0.5,1,1.5,9,0.1,0.3
Cc1ccc2c(c1)N(CC(=O)NCc1cccs1)C(=O)C(C)O2 (configuration not stated),8,-9,0.0,?,1.0,-7,3.1,-0.1
CC1CC(=O)C2=C(C1)Nc1ccccc1SC2c1ccc(F)cc1 (configuration not stated),-2,23,-0.7,-45,3.5,17,-6.9,0.6
Cc1cccc(-c2cc(=O)c(C(=O)O)cn2-c2ccc(F)cc2F)c1,2,8,3.9,21,5.2,-17,3.3,0.7
Nc1nnc(SCC(=O)Nc2cc(C(F)(F)F)ccc2N2CCOCC2)s1,4,.,4.3,0,1.7,5,.,.
Cc1nn(Cc2ccccc2)c(C)c1C(=O)NCCCN1CCCC1=O,-4,0,.,.,0.2,.,-0.4,0.1
CN(C)c1ccc(/C=N/N2C(=S)SC(C)(C)C2N(O)C(=O)Nc2ccc([N+](=O)[O-])cc2)cc1 (configuration not stated),11,-7,0.5,-2,.,-7,0.3,-1.3
O=S1(=O)c2ccccc2C(CCO)N1Cc1ccccc1 (configuration not stated),1,0,-5.5,-3,3.4,-17,0.9,0.3
COc1cc(C=C2C(=O)OC(C)(C)OC2=O)cc(Cl)c1OCC(=O)Nc1ccccc1,22,3,1.2,7,2.5,-5,8.7,-0.1
COc1cccc(/C=C2\CCC(C3CCCC3)C2=O)c1 (configuration not stated),-10,-4,-2.1,-6,4.3,-4,-3.1,-2.1
Nn1c(SCc2ccccc2F)nnc1-c1cccnc1,-1,-1,8.9,1,2.4,-12,0.0,0.1
CC(=O)c1ccc(N(C(=O)CS(=O)CC(=O)Nc2ccc(F)cc2)C(C(=O)NC2CCCCC2)c2cccs2)cc1 (configuration not stated),-6,-5,1.6,-3,5.4,12,0.5,0.8
Nc1nc(SCC(=O)OCc2ccccc2)[nH]c(=O)c1NC(=O)c1ccco1,-7,-6,-1.9,-2,2.2,-6,2.7,0.5
COc1ccc(CCN2C(=O)CSC2c2ccc(OC)c(OC)c2)cc1OC (configuration not stated),19,-1,1.5,-17,3.9,-4,-4.0,-0.6
# (more compounds)
SMILES,B2AR ag,Beta apoptosis,RanGTP-Impb inh,Calb FLC,UCH37 inh,T cruzi repl,LANA-H2B inh,A1 inh
N#Cc1nc(-c2ccco2)oc1N1CCc2ccccc2C1,-12,3,2.4,23,-83,7,1.0,-1.1
COc1cc(Br)cc(C(c2c(C)n(C)n(-c3ccccc3)c2=O)c2c(C)n(C)n(-c3ccccc3)c2=O)c1O,-14,-6,1.7,0,4.7,-7,2.7,0.6
CCn1c(SCC(=O)Nc2ccc3c(c2)OCCO3)nnc1-c1c[nH]c2ccccc12,-2,-3,0.1,1,-0.5,-5,-4.0,-0.4
CC1CCCC(NC(=O)CNC(=O)c2cccs2)C1C (configuration not stated),-4,3,-2.2,-8,3.1,-8,-3.5,1.7
O=C(CSc1n[nH]c(-c2ccccc2O)n1)N1CCOCC1,-10,-2,1.1,-1,2.2,-8,0.4,1.2
Cc1cc(Br)c(NC(=O)COC(=O)C2CCCCC2)c(Br)c1,1,-3,.,.,4.4,.,0.4,0.0
CNS(=O)(=O)c1cccc(C(=O)OCC(=O)C23CC4CC(CC(C4)C2)C3)c1,-10,-4,8.7,-15,3.3,6,-6.0,1.9
O=C(/C=C/c1ccccc1)OCCCCN=C1NS(=O)(=O)c2ccccc21,-9,-4,1.5,12,2.2,-20,3.1,-0.4
CN(C)C(=O)C1Cc2ccccc2CN1S(=O)(=O)c1ccc(F)cc1 (configuration not stated),0,-1,2.9,3,4.0,-5,-0.2,-0.1

# 3 compounds out of the list above, ordered by the value under LANA-H2B inh, lowest first.
Compound,B2AR ag,RanGTP-Impb inh,UCH37 inh,LANA-H2B inh
CC(NC(=O)/C(=C/c1ccc(OC(F)F)cc1)c1ccccc1)c1ccccc1 (configuration not stated),10,5.7,3.9,-4.0
COc1cccc(/C=C2\CCC(C3CCCC3)C2=O)c1 (configuration not stated),-10,-2.1,4.3,-3.1
OC(CNCC1CCCCC1)COc1ccccc1 (configuration not stated),-17,3.5,4.9,-1.1
